VDR inh – blocks the human vitamin D receptor; P11473; Potency, µM, for the others: max response, negative = inhibition, hits mostly inhibitors; VDR-SRC2-3 peptide fluorescence polarization, 2 h; hit rate 0.93% among 400,000; AID 504847; active = well fitted inhibition curve with a large enough effect; inconclusive = small, poorly fitted or top-dose-only effect, or another doubt; inactive = no such curve, though single readings can be large or run the other way; also: series mostly up to about 120 µM
Target sequence (P11473 whole entry, looked up): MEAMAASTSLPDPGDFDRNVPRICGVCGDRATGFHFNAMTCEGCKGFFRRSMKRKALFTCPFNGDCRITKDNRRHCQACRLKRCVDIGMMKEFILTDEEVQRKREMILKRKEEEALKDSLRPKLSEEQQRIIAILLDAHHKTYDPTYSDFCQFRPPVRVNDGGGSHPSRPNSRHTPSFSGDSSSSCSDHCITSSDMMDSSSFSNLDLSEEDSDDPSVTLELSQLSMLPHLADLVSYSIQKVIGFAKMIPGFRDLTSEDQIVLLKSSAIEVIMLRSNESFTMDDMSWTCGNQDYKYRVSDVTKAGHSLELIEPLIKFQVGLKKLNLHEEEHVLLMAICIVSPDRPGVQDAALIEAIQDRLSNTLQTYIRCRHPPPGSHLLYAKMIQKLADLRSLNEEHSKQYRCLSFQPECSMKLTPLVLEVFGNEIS
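Inhibition of the VDR/SRC2-3 peptide interaction is quantified by fluorescence polarization. Compounds (23 nl, pintool) incubate with the reagents for 2 hours at ambient room temperature.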
* hit, by the source's call; ? = inconclusive. % is scaled to controls: 0 for no effect and ±100 for the full control effect; potency is read from the fitted curve at half-maximal effect. A portion of the library. The share of hits here may be higher or lower than overall.

item	VDR inh	Molecule
1	4.6%	CCCOC(=O)C1=C(C)NC2=C(C(=O)C(C(=O)OC)C(C)C2)C1c1ccc(N(CC)CC)cc1 (stereo unspecified)
2	-8.8%	Cc1noc(C)c1S(=O)(=O)N(C)C[C@H]1Oc2ccc(NC(=O)Cc3ccccc3)cc2C(=O)N([C@H](C)CO)C[C@@H]1C
3	20.9%	CCn1cc(C2=NCC(C)O2)c2ccccc21 (stereo unspecified)
4	-5.8%	Cc1c(/C(O)=C2\C(=O)C(=O)N(CCN(C)C)C2c2cccs2)cnn1-c1ccccc1 (stereo unspecified)
5	4.7%	Cc1ccc(C(N)=Nc2ccccc2)cc1
6	-8.3%	O=C(CCn1nc(-c2ccccc2)ccc1=O)N1CCN(c2ccccc2)CC1
7	-7.4%	COc1cc(OC)cc(-c2c(C#Cc3ccsc3)c3cc(-c4cccc5[nH]ccc45)ccc3n2C)c1
8	-6.2%	Cc1ccc(O)c(N=Cc2sc3ccccc3c2Cl)c1
9	-14.0%	CC(C)(CS)C(=O)N1CCC[C@H]1C(=O)O
10	1.0%	O=C(CN1C(=O)c2ccccc2C1=O)NCC(=O)OCC(=O)c1ccc(Cl)cc1
11	-0.7%	CCn1c(C2CC(=O)N(c3cc(C)cc(C)c3)C2)nc2ccccc21 (stereo unspecified)
12	-8.8%	CCOC(=O)c1nc2nc(C)cc(=O)n2[nH]1
13	6.1%	CCc1nc(Nc2cccc(OC)c2)c2oc3ccccc3c2n1
14	-4.4%	CCc1ccc(S(=O)(=O)N2CC(=O)Nc3ccccc32)cc1
15	-10.8%	Cc1cc(C)c(C#N)c(SCS(=O)Cc2ccccc2)n1 (stereo unspecified)
16	3.6%	COc1ccc(NC(=O)c2sc3nc(N4CCCC4)c4c(c3c2N)CC(C)(C)OC4)cc1
17	18.8%	CN(Cc1ccc(F)cc1)C(=O)c1cccc(NS(=O)(=O)c2ccccc2)c1
18	-13.8%	CCOc1ccc(C(=O)OCC(=O)N2CCOCC2)cc1OCC
19	8.4%	O=C(N/N=C\c1ccncc1)c1ccc(Cl)s1
20	-9.1%	COc1cccc(-n2c(-c3cccc(F)c3)nc3c(cnn3-c3ccc(C)cc3)c2=O)c1
21	9.3%	COC1=C(OC)C(=O)C(C/C=C(\C)CC/C=C(\C)CC/C=C(\C)CC/C=C(\C)CC/C=C(\C)CC/C=C(\C)CC/C=C(\C)CC/C=C(\C)CC/C=C(\C)CCC=C(C)C)=C(C)C1=O
22	-11.9%	COc1ccc([N+](=O)[O-])cc1NC(=O)c1ccc(CN(c2ccccc2)S(C)(=O)=O)cc1
23	-13.4%	O=C(NC1CCCCCC1)C1CCN(S(=O)(=O)c2ccc(F)cc2)CC1
24	-6.2%	Cc1ccc(CCN2CC(C(=O)N3CCN(c4ccc(F)cc4)CC3)CC2=O)cc1 (stereo unspecified)
25	-7.2%	COc1ccc(OC)c(C2CC(=O)c3c([nH]c(C(=O)OC(C)C)c3C)C2)c1 (stereo unspecified)
26	?	O=C(Nc1ccc(Cl)cc1)/C(=C/c1cccc(O)c1)c1nc2ccccc2s1
27	0.0%	COc1cccc(Cn2c(CNC(=O)CCc3ccccc3)nc3cccnc32)c1
28	-16.1%	COCCNCCCCOc1ccc(Br)cc1C
29	14.8%	CCC(CC)C(=O)Nc1ccc(OCc2cc(=O)n3ccc(C)cc3n2)cc1
30	9.3%	Cc1[nH]c2ccccc2c1/C=N/NC(=O)c1cccs1
31	3.6%	N#CC1=C(N)Oc2cc(O)ccc2C1c1cccs1 (stereo unspecified)
32	0.5%	CCCCc1nn2c(=O)cc(COC(=O)c3cccc(NC(=O)c4cccs4)c3)nc2s1
33	10.3%	CC(C)CCNC(=O)CSc1nc2ccsc2c(=O)n1NC(=O)c1ccccc1
34	-7.4%	CCCCCc1c(C)nc(Nc2nc(C)c3cc(OC)ccc3n2)[nH]c1=O
35	18.8%	Cc1ccc(P(=O)(O)c2ccc(C)cc2)cc1
36	17.4%	Cc1ccc(C(=O)OCC(=O)NCCNC(=O)COC(=O)c2ccc(C)s2)s1
37	-2.3%	COc1cccc(Cn2c(=O)c(-c3cc(F)cc(F)c3)nc3cnc(OC)nc32)c1
38	17.0%	CC(C(=O)c1ccccc1)C(O)c1ccccn1 (stereo unspecified)
39	28.3%	CCN(CC)CCN(C(=O)c1ccc2c(c1)CCCC2)c1nc2cc(OC)c(OC)cc2s1
40	-17.7%	NC(=O)NC(=O)c1nccnc1C(=O)O
41	-15.4%	COc1ccc(-c2c(C)oc3c(CN4CCN(CCO)CC4)c(O)ccc3c2=O)cc1OC
42	-0.5%	O=C(COC(=O)c1cccs1)Nc1ccccc1
43	2.1%	CC(C)CCN(C(=O)C1CCCC1)c1c(N)n(Cc2ccccc2)c(=O)[nH]c1=O
44	-24.7%	Cc1noc(C)c1-c1nc(Nc2ccc(F)cc2)c2ccccc2n1
45	-27.4%	CC(Oc1ccc2c(c1)oc(=O)c1ccccc12)C(=O)NC(Cc1c[nH]c2ccc(O)cc12)C(=O)O (stereo unspecified)
46	6.3%	CCOC(=O)C1=C(c2ccccc2)Nc2ncnn2C1c1ccc(C(=O)O)cc1 (stereo unspecified)
47	-5.7%	O=C(O)c1ccc(NC(=O)c2ccc(COc3ccc(Cl)cc3)o2)cc1
48	25.6%	COc1ccc(Cc2nnc(NC(=O)C3CC(=O)N(c4ccccc4)C3)s2)cc1OC (stereo unspecified)
49	3.2%	CC(C)[C@@H]1NC(=O)c2cc([N+](=O)[O-])cc(I)c2NCCC[C@@H](C(=O)NC(CC(=O)O)C(N)=O)NC(=O)[C@H](CO)NC1=O (stereo partly specified)
50	3.9%	COCC1CCN(Cc2cn(Cc3ccccc3)nc2-c2cc3ccccc3o2)CC1

Other compounds:
item	VDR inh	Molecule
51	-9.3%	Cc1c(C(=O)NCc2ccc(F)cc2)c(-c2ccccc2)nn1-c1ccccc1
52	-0.6%	COc1ccc(CN2C(=O)CC(C(=O)NCCc3ccc(S(N)(=O)=O)cc3)SC2=Nc2ccccc2)cc1 (stereo unspecified)
53	8.6%	Cc1nn(CCOc2ccccc2Cl)c(C)c1[N+](=O)[O-]
54	-23.0%	COc1ccc(C)cc1NC(=O)COC(=O)c1ccccc1SCC(=O)N1CCCC1
55	-12.3%	Cc1ccc(NC(=O)CCNC(=O)c2ccco2)cc1F
56	-2.1%	NC(=S)N=Nc1c(O)n(CCCl)c2ccc(Br)cc12
57	-9.3%	COc1cccc(NC(=S)C(C#N)=C2N(C)c3ccccc3N2C)c1
58	-1.4%	Cc1ccc(C)c(CN2C(=O)c3ccccc3S(=O)(=O)c3ccc(C(=O)NCCc4ccc(Cl)cc4)cc32)c1
59	4.8%	CC(CCc1ccccc1)NC(=O)COC(=O)c1ccc(NC(=O)CC#N)cc1 (stereo unspecified)
60	2.1%	O=C(Nc1ccc(OC(F)(F)F)cc1)c1cc2ccccn2n1
61	-6.1%	Cc1cc(C)c(C#N)c(SCC(=O)c2ccc(Cl)cc2Cl)n1
62	0.5%	CCO[C@H]1OC(C(=O)NCc2nc3ccccc3[nH]2)=C[C@@H](C)[C@@H]1CCCO
63	5.4%	O=C(CCSc1nnc(-c2ccco2)o1)Nc1ccc(Cl)cc1
64	3.7%	Cc1ccc(CN2CC(C(=O)NC3CCCC(C)C3C)CC2=O)cc1 (stereo unspecified)
65	?	CCCCCCC1(C)NC(=S)N(c2ccccc2)N1 (stereo unspecified)
66	-9.1%	O=C(c1cc(-c2cccc(Cl)c2)on1)N1CCCCC1
67	7.4%	O=C(CSc1ccc(-c2ccco2)nn1)NCCc1ccccc1
68	-100.2%	COc1cccc(C(=O)Oc2cc3c4c(c2)C(C)=CC(C)(C)N4C(=O)C3=O)c1
69	6.0%	CCOc1ccc2nc(NC(=O)COc3ccc(N(C)S(=O)(=O)c4ccc(C)cc4)cc3)sc2c1
70	3.8%	COc1cc(OC)c(-c2nn3c(C4CCCCC4)nnc3s2)cc1OC
71	-10.2%	Cn1c(CNC(=O)c2ccccc2F)nnc1SCc1ccc(F)cc1
72	-7.8%	Cc1ccccc1NC(=S)N/N=C/C(C)c1ccccc1 (stereo unspecified)
73	0.8%	CCCN(CCC)CCCn1c(=O)[nH]c2ccccc21
74	5.5%	COCCn1c(SCCCC(=O)c2ccc(Br)cc2)nnc1-c1ccncc1
75	-19.3%	O=C(O)/C(=C\c1cccc(F)c1)c1ccc(S(=O)(=O)N2CCCCC2)s1
76	3.1%	CCOC(=O)CN1C(=O)C(C)(C)Oc2ccc(C(=O)Nc3ccccc3)cc21

Screening data as filed in PubChem BioAssay.
